Source: PubChem BioAssay
miR-21 FLuc = raises the signal of a miR-21 reporter | 340,000 tested, under 10 active | HeLa miR-21 FLuc reporter, luciferase, 48 h | AID 2288 | Potency, µM (highest dose often 38.3 µM), for inactives: at the top dose reporter change, positive = more light; active = well fitted rising curve with a large enough effect; inconclusive = small, poorly fitted or top-dose-only effect; inactive = no such curve, though single readings can be large or run the other way;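 also: % of control where 0% means no effect; miR-21 action dims this reporter so a rising signal means less miR-21 action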
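Compounds were titrated across several concentrations (up to approximately 40 uM) and incubated 48 hours with HeLa miR-21-FLuc reporter cells (miR-21 target sequence downstream of FLuc, endogenous miR-21). Readout was firefly luciferase luminescence after lytic detection reagent.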
* = called active by the depositor; ? = inconclusive. Some of the compounds tested. The share of hits here may be higher or lower than overall.

miR-21 FLuc | canonical_smiles
-5% | COc1ccc(C2C(=O)N(C3CCCCCC3)CC(=O)N2CCc2ccc(Cl)cc2)cc1OC (stereo unspecified)
0% | Cc1cc(C)cc(NC(=O)CSc2c(C(C)C)cnc3c2c(=O)n(C)c(=O)n3C)c1
0% | CC(=O)Nc1ccc(NS(=O)(=O)c2c(C(=O)N3CCC(C)CC3)c(C)n(C)c2C)cc1
-4% | COc1cccc(N2CCN(S(=O)(=O)c3cn(C)c(C)n3)CC2)c1
-4% | CSc1ccc(-c2nc3cccc(C)n3c2Nc2ccc3c(c2)OCO3)cc1
0% | CC(=O)Nc1ccccc1-c1nc2ccccc2n(CC(=O)Nc2cccc(C)c2C)c1=O
-4% | CC(=O)N1CCc2cc(S(=O)(=O)NC(CC(C)C)C(=O)Nc3ccc(C(C)C)cc3)ccc21 (stereo unspecified)
28% | CCCc1cc(C(=O)Nc2c(C)nn(Cc3ccc(Cl)c(Cl)c3)c2C)no1
-3% | Cc1cccc(C)c1OCC(=O)Nc1nonc1-c1ccc(Br)cc1
16% | CCOc1ccccc1NC(=O)c1ccc2oc(=O)c(S(=O)(=O)c3ccc(F)cc3)cc2c1
3% | CCOc1cc(C(=O)Nc2cc3c(cc2N2CCCC2)n(C)c(=O)c(=O)n3C)cc(OCC)c1OCC
2% | CCOc1ccccc1N(C)C(=O)Cn1nc(Cc2ccncc2)c2ccccc2c1=O
-12% | Cc1ccc(NS(=O)(=O)c2ccc(-n3cccn3)cc2)c(Br)c1
10% | COc1cc(NC(=O)c2cc3c(=O)n(Cc4cccs4)ccc3nc2C)cc(OC)c1OC
3% | Cn1ccc2cc(S(=O)(=O)N3CCC(C(=O)NCCc4ccccc4)CC3)ccc21
4% | COc1cccc(NC(=O)CSC2=Nc3ccccc3C3=NC(CC(=O)NC4CCCCC4)C(=O)N23)c1 (stereo unspecified)
7% | Cc1ccc(-c2nnc(SCC(=O)NC3CCCC3)nc2-c2ccc(C)cc2)cc1
1% | CCC1CCCCN1S(=O)(=O)c1ccc(NC(=O)c2cc(=O)c3c(C)cc(C)cc3o2)cc1 (stereo unspecified)
-1% | Cc1ccc(CN2CCCn3nc(C(=O)NCCc4ccccc4Cl)cc3C2=O)cc1
3% | CCOCCCn1c(SCC(=O)Nc2ccc(F)cc2)nc2c(sc3ccccc32)c1=O
28% | CCNC(=O)c1ccc(-n2c(-c3ccccc3)cc3c2CCCCC3)cc1
-8% | COc1ccc(/C=C/C(=O)Nc2nc3n(n2)C(c2ccccc2)C=C(c2ccccc2)N3)cc1 (stereo unspecified)
-4% | CC1=C(c2ccc(C)cc2)S(=O)(=O)NC1=NCc1cccc(F)c1
0% | CS(=O)(=O)NCCc1csc2nc(-c3ccccc3)nn12
? | Cc1ccc(C)c(Nc2nn3c(=O)c4ccc(C(=O)NCc5cccs5)cc4nc3s2)c1
0% | Cc1ccc(CNC(=O)c2ccc3c(c2)N(Cc2ccccc2)C(=O)c2ccccc2S3(=O)=O)cc1
30% | Cc1cccc(N2CCN(C(=O)CS(=O)(=O)Cc3nc(-c4ccccc4C)oc3C)CC2C)c1 (stereo unspecified)
-14% | COc1ccc(NC(=O)CC2C(=O)N(c3ccc(C)cc3)C(=O)N2Cc2ccc(C)cc2)cc1 (stereo unspecified)
-11% | O=C(COc1ccccc1)N(Cc1cccnc1)c1nc2c(F)cc(F)cc2s1
2% | COc1ccc(-c2nc3scc(CCNS(=O)(=O)c4ccc(F)cc4C)n3n2)cc1
-2% | O=C(c1c2c(nc3ccccc13)C(=O)N(C1CCCCC1)C2)N1CCN(c2ccc(F)cc2)CC1
? | CC(=O)Nc1cccc(-c2nnc(SCC(=O)c3cc([N+](=O)[O-])ccc3Cl)o2)c1
7% | COc1ccc(-c2cnc(C)o2)cc1S(=O)(=O)Nc1c(C)cc(C)cc1C
0% | Cc1ccccc1CNC(=O)CCCn1c(=O)c2cccn2c2ccccc21
2% | Cn1ccc2cc(S(=O)(=O)N3CCCC(C(=O)NCc4ccccc4F)C3)ccc21 (stereo unspecified)
-1% | COc1ccc(/C=C/c2nc(C#N)c(N3CCC(C(N)=O)CC3)o2)cc1OC
-6% | N#C/C(=C\c1ccc(F)cc1)c1nc(-c2ccc(-c3ccccc3)cc2)cs1
-6% | CSc1ccc(CNC(=O)CCc2c(C)nn(-c3ccc(N4CCCC4)nn3)c2C)cc1
-38% | CC(C)CCNC(=O)C1CCN(C(=O)N2CCOc3ccc(Cl)cc32)CC1
1% | COc1ccc(N2CC(NC(=O)c3ccc(S(=O)(=O)N4CCOCC4)cc3)CC2=O)cc1 (stereo unspecified)
-1% | O=C(CCSCc1ccc(Cl)cc1)NCc1ccc(F)cc1Cl
-3% | Clc1ccc(CN2CCN(c3ncnc4sc5c(c34)CCCC5)CC2)cc1Cl
-4% | COc1ccc(CNC(=O)CCc2c(C)nn(-c3ccc(N4CCOCC4)nn3)c2C)c(OC)c1
? | CCC(=O)N1CCc2cc(S(=O)(=O)NC(CC(C)C)C(=O)NCCc3ccccc3)ccc21 (stereo unspecified)
0% | O=C(Nc1ccc(C(=O)OCc2cc(=O)n3c4c(sc3n2)CCCC4)cc1)c1cccc(F)c1
-2% | COc1cc(C2C(=O)N(C3CCCCC3)CC(=O)N2CCC2=CCCCC2)ccc1OC(C)C (stereo unspecified)
-1% | CC1CCCCN1C(=O)Cn1c(SCC(=O)N(C)c2ccccc2)nc2ccccc21 (stereo unspecified)
-38% | COc1ccc2c(CC(=O)Nc3ccc(C)cc3)coc2c1
14% | CCc1ccc(-n2c(C)nnc2SCc2nc(-c3ccc(OC)cc3)no2)cc1
-12% | Cc1cccn2c(=O)c3cc(C(=O)NC(C)(C)C)n(C)c3nc12
0% | COc1ccc(OC)c(NC(=O)CS(=O)(=O)Cc2nc(-c3ccc(C)cc3)oc2C)c1
10% | CSCCC(NS(=O)(=O)c1ccc2c(c1)oc(=O)n2C)C(=O)N1CCN(c2cc(C)ccc2C)CC1 (stereo unspecified)
0% | CCc1ccc(NC(=O)CN(c2ccc(C)cc2)S(=O)(=O)c2c(C)nn(C)c2C)cc1
-3% | CC(=O)c1ccc(N2C(=O)N(Cc3cc(C)ccc3C)c3ccccc3S2(=O)=O)cc1
1% | O=C(NCCc1ccccc1)c1cc2sccc2n1Cc1ccc(F)cc1
0% | CCN(CC)CCNC(=O)CN1C(=O)CSc2ccc(S(=O)(=O)N3CCOCC3)cc21

Ordered by length of the SMILES (ascending): part of the list above.
miR-21 FLuc | canonical_smiles
-38% | COc1ccc2c(CC(=O)Nc3ccc(C)cc3)coc2c1
-1% | O=C(CCSCc1ccc(Cl)cc1)NCc1ccc(F)cc1Cl
1% | O=C(NCCc1ccccc1)c1cc2sccc2n1Cc1ccc(F)cc1
-12% | Cc1cccn2c(=O)c3cc(C(=O)NC(C)(C)C)n(C)c3nc12
-3% | Clc1ccc(CN2CCN(c3ncnc4sc5c(c34)CCCC5)CC2)cc1Cl
14% | CCc1ccc(-n2c(C)nnc2SCc2nc(-c3ccc(OC)cc3)no2)cc1
-1% | CC1CCCCN1C(=O)Cn1c(SCC(=O)N(C)c2ccccc2)nc2ccccc21 (stereo unspecified)
0% | CCN(CC)CCNC(=O)CN1C(=O)CSc2ccc(S(=O)(=O)N3CCOCC3)cc21
-2% | COc1cc(C2C(=O)N(C3CCCCC3)CC(=O)N2CCC2=CCCCC2)ccc1OC(C)C (stereo unspecified)
1% | COc1ccc(N2CC(NC(=O)c3ccc(S(=O)(=O)N4CCOCC4)cc3)CC2=O)cc1 (stereo unspecified)
? | CCC(=O)N1CCc2cc(S(=O)(=O)NC(CC(C)C)C(=O)NCCc3ccccc3)ccc21 (stereo unspecified)
0% | O=C(Nc1ccc(C(=O)OCc2cc(=O)n3c4c(sc3n2)CCCC4)cc1)c1cccc(F)c1
10% | CSCCC(NS(=O)(=O)c1ccc2c(c1)oc(=O)n2C)C(=O)N1CCN(c2cc(C)ccc2C)CC1 (stereo unspecified)

Carrying on.
miR-21 FLuc | canonical_smiles
6% | Cc1ccc(-c2nnc(Nc3cccc(C(F)(F)F)c3)c3ccccc23)cc1S(=O)(=O)N1CCOCC1
4% | CCC(=O)N1CCc2cc(Br)cc(S(=O)(=O)CCC(=O)NCc3cccc(OC)c3)c21
2% | Cc1ccc(Cn2c(=O)n(Cc3nc(-c4ccccc4)no3)c(=O)c3cc4c(cc32)OCO4)cc1
-3% | CC1=C(C)CC(C(=O)NCc2ccccc2F)C(C(=O)O)C1 (stereo unspecified)
-1% | CCn1c(=O)cc(SCC(=O)Nc2ccc(C)c(F)c2)c2ccccc21
? | Cc1cccn2c(=O)c(C(=O)NC(C)c3ccccc3)c(O)nc12 (stereo unspecified)
-3% | Cc1ccc2nc(COc3ccccc3NC(=O)COc3ccccc3Cl)cc(=O)n2c1
1% | COc1ccc(CNc2oc(-c3ccc(COc4ccc(Cl)cc4)o3)nc2C#N)cc1
9% | COc1ccc(-c2nc(SCC(=O)NC3CCCC3)c(-c3ccc(F)cc3)[nH]2)cc1OC
6% | O=C(c1ccc2c(c1)N(Cc1ccccc1)C(=O)c1ccccc1S2(=O)=O)N1CCCCCC1
-6% | CCOC(=O)c1ccccc1NC(=O)c1sc2nc3n(c(=O)c2c1C)CCCC3
3% | O=C(Nc1ccccc1C(F)(F)F)c1ccc2oc(=O)c(S(=O)(=O)c3ccc(F)cc3)cc2c1
-15% | CCN(CC)c1cc(C)c2cc(NC(=O)/C=C/c3ccccc3OC(C)C)ccc2n1
0% | COc1ccc(-n2nc3ccc(NC(=O)c4cc5ccccc5o4)cc3n2)cc1Cl
23% | COc1cccc(Cn2c(=O)n(-c3ccccc3C)c(=O)c3c2c2cc(C)ccc2n3C)c1
8% | Cc1cccc(NS(=O)(=O)c2c(C)nc3sccn3c2=O)c1C
3% | Cc1noc(-c2ccc(-c3noc(-c4cccc(Cl)c4)n3)cc2)n1
5% | Cc1ccc(C(=O)Nc2c(C)nc3ccccn3c2=O)cc1
-5% | CCCc1nn2c(=O)cc(COc3ccc(/C=C(\C#N)C(=O)Nc4ccccc4)cc3)nc2s1
-2% | CCOC(=O)C1CCN(C(c2ccc(F)cc2)c2sc3nc(-c4ccco4)nn3c2O)CC1 (stereo unspecified)
-16% | COc1cccc2c1Oc1ncccc1N(C(=O)Nc1cccc(Cl)c1)C2
-7% | Cn1c(=O)c2c(nc(NCCc3ccccc3)n2Cc2ccc(Cl)c(Cl)c2)n(C)c1=O
2% | COc1ccc(OC)c(CCNc2nc3ccccc3c3nc(-c4cccnc4)nn23)c1
1% | CCCCCOc1ccc(/C=C/C(=O)Nc2sc(C(C)=O)c(C)c2C(=O)OCC)cc1OC
-1% | O=S(=O)(c1ccc(Br)cc1)c1nc(-c2cccs2)oc1SCc1ccccc1F
-84% | CCOc1ccccc1NC(=O)CN1C(=O)CC(c2ccc(C)c(C)c2)=Nc2ccccc21
? | COC(=O)CN1C(C(=O)c2ccccc2)=C(OC(=O)c2ccc(F)cc2)c2ccccc2S1(=O)=O
-3% | Cc1ccc(-n2nc(C(=O)NCCc3cccc(C)c3)c3c4ccccc4n(C)c3c2=O)cc1
-3% | COc1cccc(CNC(=O)CN2C(=O)CSc3ccc(S(=O)(=O)N(C)C)cc32)c1
5% | Cc1cc(C)cc(-n2c(SCC(=O)N3CCc4ccccc43)nc3c([nH]c4ccccc43)c2=O)c1
9% | Cc1cccc(N2CCN(CCCNC(=O)c3sc4ncccc4c3-n3cccc3)CC2C)c1 (stereo unspecified)
2% | CC1=C(c2ccc(C)c(C)c2)S(=O)(=O)N=C1N1CCC(C(=O)NC(C)Cc2ccco2)CC1 (stereo unspecified)
6% | Cc1ccc(OCCn2cc(C(=O)c3ccco3)c3ccccc32)cc1C
1% | CCOc1ccc(CNCc2c(C(=O)O)c(C)n(Cc3ccc(C)cc3)c2C)cc1
3% | O=C(CCc1nc(CN2CCN(S(=O)(=O)c3ccc(Cl)cc3)CC2)no1)N1CCCCC1
0% | Cc1ccc(-n2nc(C)c3c(C)cc(=O)n(CC(=O)NCc4ccc(OC(C)C)cc4)c32)cc1
1% | Cc1cccc(-n2ncc3c(Nc4ccc(Oc5ccc(Cl)cc5)cc4)ncnc32)c1
-4% | Cc1ccc(-n2nc3c(N4CCC(C(=O)NC(C)c5ccccc5)CC4)nnc(C)c3c2C)cc1 (stereo unspecified)
-15% | CC1CCN(C(=O)CSc2nc(-c3ccc(C(C)C)cc3)no2)CC1
-20% | CCc1ccc(S(=O)(=O)Nc2ccc(-c3ccc(N4CCCCCC4)nn3)cc2)cc1
-8% | Cc1nn(CCC(=O)NCc2cccc(Br)c2)c(=O)c2nn(-c3ccccc3)c(C)c12
12% | COc1cccc(NS(=O)(=O)c2ccc3c(c2)N(C)C(=O)CC(=O)N3C)c1
-15% | Cc1ccccc1NC(=O)CSc1nc(-c2ccccc2C)nc2cc(=O)[nH]n12
-3% | Cc1ccccc1-c1nnn(CC(=O)Nc2sc3c(c2C#N)CCC(C(C)(C)C)C3)n1 (stereo unspecified)
1% | O=C(NCCc1ccccc1Cl)C1CCN(c2nc3ccccc3nc2C(F)(F)F)CC1
6% | COc1cc2ccccc2cc1C(=O)Nc1cccc(-c2nc3cc(C)c(C)cc3o2)c1C
14% | COc1ccc(Cc2nc3ccccc3n2Cc2ccccc2F)cc1
0% | O=C(O)CCc1ccc(-c2ccc(Cl)cc2)n1-c1cccc(C(F)(F)F)c1
0% | Cc1ccc(-n2c(SCC(=O)NCc3ccc(F)cc3)nc3c([nH]c4ccccc43)c2=O)cc1
-27% | Cc1nc(-c2ccc(Cl)cc2)sc1CCNC(=O)C(=O)Nc1ccccc1C#N
-26% | Cc1ccccc1CNC(=O)C1CCN(c2nn3cc(-c4ccc(F)cc4)nc3s2)CC1
-6% | COC(=O)c1c(NC(=O)C2c3ccccc3Oc3ccccc32)sc2c1CCC(C(C)(C)C)C2 (stereo unspecified)

2 entries picked at random from the list so far:
miR-21 FLuc | canonical_smiles
0% | Cc1ccc(-n2c(SCC(=O)NCc3ccc(F)cc3)nc3c([nH]c4ccccc43)c2=O)cc1
-27% | Cc1nc(-c2ccc(Cl)cc2)sc1CCNC(=O)C(=O)Nc1ccccc1C#N
